Bioassay records deposited in PubChem BioAssay by several laboratories.
UCH37 DUB inh – human UCH37 deubiquitinating enzyme inhibition; inhibition, % (no concentration beside the values); Q9Y5K5; 0.33% of 330,000 active; purified proteasome/UCH37, Ub-AMC cleavage fluorescence; AID 588478;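 active means mean of two replicates above 20%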;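 further: 0% = compound-free wells with enzyme and 100% = wells lacking proteasome; stock transfer was 100 nL into about 20 µL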
Target sequence (Q9Y5K5 whole entry, looked up): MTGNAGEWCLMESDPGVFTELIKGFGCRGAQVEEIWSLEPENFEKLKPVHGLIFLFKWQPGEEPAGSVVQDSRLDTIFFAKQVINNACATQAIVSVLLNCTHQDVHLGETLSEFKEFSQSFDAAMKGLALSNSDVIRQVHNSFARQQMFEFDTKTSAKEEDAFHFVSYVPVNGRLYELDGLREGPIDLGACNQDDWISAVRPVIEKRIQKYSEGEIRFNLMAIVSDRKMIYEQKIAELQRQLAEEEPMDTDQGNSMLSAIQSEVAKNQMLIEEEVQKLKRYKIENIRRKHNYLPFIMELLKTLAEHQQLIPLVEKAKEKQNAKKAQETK
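Material: human UCH37 enzyme supplied as purified proteasome complex / Amount: 0.15 nM proteasome as dispensed / Buffer or medium: pH 7.4 Tris-HCl (50 mM) with ovalbumin, ATP-MgCl2, DTT / Times: preincubation 30 min, reaction 25 min, room temperature / Technique: AMC fluorescence from Ub-AMC cleavage, excitation 355 nm, emission 460 nm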
Beta2AR agonist – activates human beta-2 adrenergic receptor causing internalization. Am2.2-beta2AR cells, FAP receptor internalization, flow cytometry; reference of the scale not given here. response, % (concentration not given with the values). 0.43% of 340,000 active. AID 504454;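 active means response above a set limit, near 3 SD of response in nonfluorescent compounds, cut at about 42% in these data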;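 further: stock transfer was 100 nL into about 11 µL; a reference agonist was the positive control; negative values mostly stem from fluorescent compounds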
Target sequence (P07550 whole entry, looked up): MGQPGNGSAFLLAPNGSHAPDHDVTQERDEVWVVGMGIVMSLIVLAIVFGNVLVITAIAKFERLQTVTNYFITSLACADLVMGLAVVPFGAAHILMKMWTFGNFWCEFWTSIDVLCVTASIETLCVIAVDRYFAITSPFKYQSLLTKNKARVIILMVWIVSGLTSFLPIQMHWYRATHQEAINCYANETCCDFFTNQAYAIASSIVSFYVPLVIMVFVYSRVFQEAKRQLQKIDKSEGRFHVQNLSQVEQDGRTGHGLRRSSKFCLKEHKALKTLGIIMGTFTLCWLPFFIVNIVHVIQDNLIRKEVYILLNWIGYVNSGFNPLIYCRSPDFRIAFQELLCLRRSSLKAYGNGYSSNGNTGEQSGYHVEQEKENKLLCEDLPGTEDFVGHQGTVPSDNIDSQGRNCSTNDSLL
Beta apoptosis – beta cell apoptosis inhibition. protection from apoptosis, % (no concentration beside the values). AID 435005. INS-1E cytokine-induced death, ATP luminescence, 48 h; percent of positive-control rescue, neutral wells zero. 0.8% of 300,000 active;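 active means all replicates at 75% or more, or half of them and the mean; inconclusive means half reach 75% but not the mean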;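 further: 0% = cytokine-treated negative control wells and 100% = positive control rescue; higher means more ATP so stronger rescue from cytokine killing; wells of about 40 µL received 100 nL stock; the first replicate is given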
LANA-H2B inh – blocks KSHV LANA binding to histone H2A/H2B. Q9QR71. 0.6% of 320,000 active. AID 2629. cell-free LANA-H2A/H2B peptide, fluorescence polarization. inhibition, % (test concentration not listed); in the data active means inhibition mostly above about 10%, no sharp cut-off; inactive means mostly below about 6.7%;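 further: stock transfer was 7.5 nL into about 10 µL; 0% = median of vehicle wells and 100% = median of positive control wells; one replicate is shown; the record names a cut of 25% in any replicate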
Calb FLC – affects C. albicans growth with fluconazole; C. albicans CaCi-2 (fluconazole-resistant clinical isolate) + fluconazole, Alamar Blue growth, 48 h; 0.57% of 300,000 active; growth inhibition, % (no concentration beside the values);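 active means most replicates above 75%; inconclusive means exactly half above 75%; inactive means most below 75%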;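 further: all wells also contain fluconazole at 8 µg/ml as a sub-toxic cotreatment; 0% = median of DMSO wells and 100% = median of geldanamycin control wells; wells of about 8 µL received 7.5 nL stock; the first replicate is given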
A1 inh – inhibitors of the anti-apoptotic protein A1, read as caspase activation; MEF A1-2A-BIM cells, Caspase-Glo 3/7 luminescence, 3 h; percent of clofoctol response, vehicle zero; caspase activation, % (concentration not given with the values); 0.066% of 330,000 active; AID 2462;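 active means over half of replicate activation scores above 10%, or exactly half above 10 with the replicate mean above 10; inconclusive means replicate mean below 10 yet half the replicates above 10; inactive means over half of replicates below 10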;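 further: wells of about 30 µL received 50 nL stock; many hits fall short of the cut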
RanGTP-Imp inh – inhibitors of RanGTP-importin-beta interaction, primary screen, biochemical, FRET, CFP-Ran, YFP-importin-beta, homogeneous. cell-free CFP-Ran/YFP-importin-beta FRET ratio. inhibition, % (test concentration not listed). 1.1% of 300,000 active. AID 2216;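 active means most replicates above 15%; inconclusive means exactly half above 15%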;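 further: 0% = DMSO wells and 100% = Ran loaded with GDP instead of GTP; wells of about 40 µL received 100 nL stock; the first replicate is given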
T cruzi inh – T. cruzi replication inhibition; T. cruzi beta-gal in NIH3T3, luminescence, 90 h; inhibition, % (test concentration not listed); 1.4% of 300,000 active;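 active means mean inhibition across valid replicates above about 55%, limit read from the data; inconclusive means mean below that limit but half or more replicates reach it; inactive means mean below it, under half of replicates reach it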;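 further: signal also drops with host cell toxicity which is not excluded here; 0% = plate median of DMSO wells and 100% = zero luminescence signal; higher percent means less beta-gal luminescence so fewer parasites; stock transfer was 50 nL into about 50 µL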
* = called active by the depositor; u = inconclusive; x = not tested or not shown.

SMILES | UCH37 DUB inh | Beta2AR agonist | Beta apoptosis | LANA-H2B inh | Calb FLC | A1 inh | RanGTP-Imp inh | T cruzi inh
Cc1cccc2c1N1C(=O)c3c(C(=O)O)cccc3C1CC2C (stereo unspecified) | 0.9 | 7 | -1 | -3.6 | -1 | 1.0 | -2.1 | -12
CN(CC(=O)Nc1ccc(F)cc1)C(=O)COC(=O)c1cccc(N(C)C)c1 | -29 | -3 | -7 | -4.6 | x | -0.9 | x | x
COc1ccccc1Nc1nc(-c2sc(NC(=O)CC(C)C)nc2C)cs1 | -2.1 | 18 | 3 | 1.7 | 7 | -0.9 | -2.7 | 11
CCOc1ccc(CCNC(=O)Cn2nc(C)c3c(C)n(-c4ccccc4)nc3c2=O)cc1 | 1.2 | 7 | -2 | 1.6 | 36 | 0.4 | 0.3 | -1
Cc1[nH]nc2c1C(c1ccc(-c3ccc(Cl)cc3)o1)C(C#N)=C(N)O2 (stereo unspecified) | 3.0 | -1 | x | -2.5 | 7 | 0.1 | 12 | -10
O=C1c2ccccc2C(O)N1Cc1cccs1 (stereo unspecified) | 2.9 | -3 | -4 | 1.1 | -14 | 0.3 | -0.1 | -6
CC(=O)Nc1cc(C)nn1-c1nc(C)cc(C)n1 | -2.2 | -4 | 3 | 3.6 | -1 | 0.1 | 2.7 | -28
COC(=O)CCCc1nc2ccccc2s1 | 2.6 | -1 | -2 | 3.6 | 6 | 1.2 | 10 | 9
Cc1ccc2cc(/C=N/Nc3nc4ccccc4[nH]3)c(Cl)nc2c1 | x | -3 | x | x | 7 | x | 4.9 | 10
CCNC(=O)N(CC)C[C@H]1N[C@@](C)(C(=O)OC)[C@H]2C(=O)N(Cc3ccccc3)C(=O)[C@@H]12 | 4.2 | -6 | -8 | -0.7 | x | -0.6 | x | x
Cc1ccc(C(=O)O/N=C(\N)c2ccccn2)c(C)c1 | x | 9 | -8 | -2.0 | -4 | 1.1 | -1.1 | -5
Cc1cc(-c2csc3nc[nH]c(=S)c23)cc(C)c1C | 5.7 | 6 | 22 | -0.5 | 49 | -0.5 | -3.2 | 1
COc1ccc(Cl)cc1C(=O)O/N=C(\N)c1ccncc1 | 0.8 | -13 | -12 | -3.1 | -2 | -1.0 | 0.3 | -3
CC(=O)Nc1ccc(NS(=O)(=O)c2ccc(OC(C)C(=O)N3CCOCC3)cc2)cc1 (stereo unspecified) | -0.6 | -4 | x | -0.6 | -4 | 0.1 | 1.4 | 3
COc1ccccc1N1CCN(C(=O)C2CC2)CC1 | 3.1 | 1 | x | -1.5 | 4 | 0.2 | 5.0 | 3
Cc1noc(-c2ccc(Cl)cc2)c1C(=O)O/N=C(\N)c1ccc(C(C)(C)C)cc1 | x | 16 | 39 | 3.2 | 1 | 0.2 | 5.8 | 41
OC1(c2ccc(OC(F)F)cc2)CSC(=Nc2cccnc2)N1C1CC1 (stereo unspecified) | -1.4 | 15 | 60 | -4.0 | x | 0.5 | 2.0 | -29
CC(C)c1ccc(NC(=O)N2CCCC2C(=O)Nc2ccc(-n3cnnn3)cc2)cc1 (stereo unspecified) | 2.4 | 1 | -5 | -1.4 | -8 | -0.1 | 0.7 | 0
CCN1CCN(c2nc(N(C)c3ccccc3)nc(N)c2[N+](=O)[O-])CC1 | 3.9 | 8 | -8 | -1.4 | 12 | 0.7 | 1.0 | 31
CC(Oc1ccc(Cl)cc1Cl)c1nc(-c2ccc(NC(=O)c3ccccn3)cc2)no1 (stereo unspecified) | -32 | 82* | x | -6.2 | 3 | -0.8 | 2.5 | x
COCCCN1C(=O)c2ccc(C(=O)NCCc3ccccc3)cc2C1=O | 1.9 | -15 | -10 | 6.2 | -3 | -0.3 | 2.9 | -7
COc1cc(/C=C/C(=O)OCC(=O)Nc2ccccc2Cl)cc(OC)c1OC | -53 | 4 | 2 | -0.8 | 39 | -0.1 | -0.5 | -3
CN(C[C@H](Cc1ccccc1)N(C[C@H](c1ccccc1)N(CCc1ccccc1)N=O)N=O)N=O | 4.0 | 19 | 8 | 0.8 | -20 | 0.4 | -4.4 | 29
Cc1ccc(O)c(/C=N/NC(=O)Cc2ccc(Cl)cc2)c1 | x | 0 | x | -0.8 | 19 | 0.4 | -1.4 | -1
CCCCNC(=O)CCn1nc(-c2ccc(Cl)cc2)c2ccccc2c1=O | 0.6 | -9 | 3 | -0.5 | -3 | 0.9 | 1.4 | 11
CCCn1nnnc1NC(=O)CSc1ccc(Cl)cc1 | 0.6 | 4 | -13 | 1.4 | 25 | 0.0 | 1.3 | -17
CC(=O)Nc1ccc(S(=O)(=O)N2CCC(C(N)=O)(N3CCCCC3)CC2)cc1 | 2.0 | 2 | 9 | -0.7 | 7 | 0.7 | u | -6
CSc1ccc(/C=N/N2CCN(c3ccccc3)CC2)cc1 | x | 6 | 0 | 0.7 | -8 | -2.5 | -0.6 | -1
Cc1cc(C)c2ccc(/C=N/O)nc2c1O | x | -6 | 0 | -3.1 | 6 | 0.1 | 3.6 | -6
O=C(CN1C(=O)NC2(CCCCCC2)C1=O)NCCc1ccccc1 | 3.1 | 0 | -5 | 186* | x | 0.7 | x | x
Cc1ccc(NC(=O)CCNS(=O)(=O)c2cccc3nonc23)cc1 | 2.2 | 1 | 3 | 0.6 | 7 | -0.1 | -2.7 | -2
CCC(C)(C(=O)NC1CCCC1)N(Cc1cccs1)C(=O)c1ccccn1 (stereo unspecified) | 3.3 | 4 | -4 | -0.9 | 0 | -0.6 | 1.2 | 1
Cc1ccc(NC(=O)/C=C/c2cccs2)c([N+](=O)[O-])c1 | 1.2 | -9 | 5 | 4.4 | 3 | 0.5 | -5.5 | -40
COc1cccc(C(=O)N(c2ccc(C)cc2)C2C=CS(=O)(=O)C2)c1 (stereo unspecified) | 2.9 | 2 | -3 | 0.4 | 1 | 0.4 | 1.2 | -6
CCOc1ccc(N2CC(O)=C(c3nc4ccccc4c(=O)[nH]3)C2=N)cc1 | -17 | 3 | -6 | -0.1 | 1 | 0.6 | -1.0 | -3
COc1ccc(C(C)=O)cc1CSc1nc2ccccc2o1 | 0.2 | -3 | 2 | -0.9 | 0 | -0.2 | u | -2
COc1ccc(CC(=O)NNC(=O)[C@@H]2CCCC[C@@H]2C(=O)O)cc1 | 5.2 | 1 | -6 | 0.2 | -3 | -0.1 | -1.3 | -4
COc1ccc(C(=O)NC(=S)NCc2cccnc2)cc1[N+](=O)[O-] | 4.9 | -37 | -10 | 7.9 | 4 | 0.4 | -5.2 | 11
COc1ccc2[nH]c(=O)c(CNc3ccc(C)cc3C)cc2c1 | -6.5 | 6 | -9 | -1.9 | -13 | 0.5 | -38 | -24
C/C(CC(=O)Nc1ccc(C)c(Cl)c1)=N\NC(=O)c1ccccn1 | x | 1 | -4 | 5.6 | 8 | -0.2 | 2.8 | 4
Cc1cc(C)n2nc(C(=O)OCC(=O)Nc3ccc4c(c3)OC(F)(F)O4)nc2n1 | 4.3 | -15 | -2 | x | -5 | 0.2 | -2.0 | -19
CCCc1c(C(=O)OCC)sc(N)c1C#N | -2.1 | 5 | x | -1.2 | 25 | -1.0 | 10.0 | 22
O=C(Nc1ccc(F)cc1)C1CCCN1S(=O)(=O)c1cccc2nsnc12 (stereo unspecified) | 4.6 | -5 | -6 | 1.6 | 1 | -0.4 | 8.2 | -8
O=C(Nc1ccccc1F)c1ccc(C(=O)c2ccccc2)cc1 | 0.2 | -8 | x | -0.6 | 6 | 1.7 | 0.6 | 4
CCOC(=O)c1c(NC(C)=O)sc2c(O)c(CN3CCN(CC)CC3)ccc12 | 3.4 | 4 | -14 | -1.5 | 20 | -0.1 | -0.5 | 5
Fc1ccc(-c2ccc(-c3nn4c(-c5ccco5)nnc4s3)o2)cc1 | -25 | -16 | 0 | -2.3 | 14 | 1.1 | 5.1 | -7
CCOC(=O)c1oc2ccccc2c1NC(=O)c1cccc(OC)c1 | -14 | 2 | -3 | 0.3 | -31 | -1.4 | 4.3 | 19
CN1CCN(c2ccc(CNS(=O)(=O)Cc3ccc(Cl)cc3)cc2)CC1 | 4.6 | 1 | -7 | 3.0 | -5 | -1.0 | 1.9 | 49
c1ccc(CCc2nn3c(-c4ccncc4)nnc3s2)cc1 | 5.0 | -7 | x | 4.1 | -24 | 0.2 | -0.1 | 15
NS(=O)(=O)c1ccc(NC(=O)COc2ncnc3c2cnn3-c2ccccc2)cc1 | 3.4 | 6 | -4 | -3.8 | 3 | 0.8 | -3.1 | 3
CCC(CC)c1nnc(NC(=O)c2ccc(N3CCCC3=O)cc2)s1 | 2.7 | -8 | -7 | 0.4 | 7 | 0.1 | -2.0 | -6
CCN1CCN(C(=O)c2ccc3c(=O)n(Cc4ccccc4OC)c(=S)[nH]c3c2)CC1 | 3.0 | 3 | -1 | -2.8 | 0 | -1.0 | 3.8 | 20
Cc1ccccc1Nc1c(-c2cccnc2)nc2ccc(Br)cn12 | 0.1 | 4 | -20 | 0.1 | 27 | 0.5 | 3.9 | 33
CCOc1ccc(C(=O)Nc2cccc(NC(=O)c3cccs3)c2)cc1[N+](=O)[O-] | 3.3 | 6 | x | x | 4 | x | 3.4 | 13
O=C(CCCNC(=O)c1ccc(Cl)cc1)Nc1ccc(S(=O)(=O)Nc2ncccn2)cc1 | -0.1 | -5 | -1 | 7.3 | -1 | 0.6 | -7.0 | 7
CCOC(=O)c1[nH]c2c(c1C)C(=O)CC(c1ccco1)C2 (stereo unspecified) | 1.1 | 15 | 33 | 3.8 | 1 | 0.3 | -2.3 | 3
O=C(CN1CCN(c2ccc(O)cc2)CC1)Nc1cc(S(=O)(=O)N2CCCCC2)ccc1Cl | 3.3 | 16 | 16 | -2.6 | 3 | 0.5 | 1.9 | -17
CCOc1ccccc1NC(=O)CNS(=O)(=O)c1ccc2nc(C)sc2c1 | 0.4 | 1 | -6 | 4.3 | -19 | 1.0 | 1.0 | 5

Single records, as listed above. Order of values: UCH37 DUB inh, Beta2AR agonist, Beta apoptosis, LANA-H2B inh, Calb FLC, A1 inh, RanGTP-Imp inh, T cruzi inh
CCOC(=O)c1[nH]c2c(c1C)C(=O)CC(c1ccco1)C2 (stereo unspecified) as listed: 1.1, 15, 33, 3.8, 1, 0.3, -2.3, 3
CCOC(=O)c1oc2ccccc2c1NC(=O)c1cccc(OC)c1 as listed: -14, 2, -3, 0.3, -31, -1.4, 4.3, 19
CCOc1ccccc1NC(=O)CNS(=O)(=O)c1ccc2nc(C)sc2c1 as listed: 0.4, 1, -6, 4.3, -19, 1.0, 1.0, 5
Fc1ccc(-c2ccc(-c3nn4c(-c5ccco5)nnc4s3)o2)cc1 as listed: -25, -16, 0, -2.3, 14, 1.1, 5.1, -7
O=C(CN1CCN(c2ccc(O)cc2)CC1)Nc1cc(S(=O)(=O)N2CCCCC2)ccc1Cl as listed: 3.3, 16, 16, -2.6, 3, 0.5, 1.9, -17
